Source: PubChem
Mtb hypoxia rep = Mtb hypoxia fluorescent reporter inhibition | M. tuberculosis hypoxia-regulated fluorescent reporter, fluorescence | fluorescence inhibition, % (no concentration beside the values) | 0.1% of 300,000 active | AID 1159583;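 active = 35 to 45% if threefold the growth effect, above 45% if 1.5-fold the growth effect; inactive = the rest, general growth blockers included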;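 also: wells of about 50 µL received 100 nL stock; 0% = vehicle wells and 100% = reference inhibitor wells; whole bacteria with a GFP reporter of the hypoxia response; strong numbers were not always called active; many hits fall short of the cut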
Autofluor counter = flagged as autofluorescent in microsphere protease counterscreen | compound autofluorescence counterscreen, microsphere flow cytometry; active compounds read high | fluorescence intensity (concentration not given with the values) | 3.1% of 360,000 active;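 active = at least 3 SD above the mean of all compounds, about 16000 in these data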;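 also: 100 nL of 1 mM stock went into each well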
BJeLR lethal = BJeLR cell viability loss; BJeLR (HRASV12) viability, CellTiter-Glo ATP luminescence, 48 h; reference of the scale not given here; inhibition, % (test concentration not listed); 0.17% of 300,000 active;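 active = replicate mean above 50%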;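 also: 50 nL library stock added to about 25 µL; numbers are from one replicate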
PrP 5UTR inh = inhibition of PrP 5' UTR reporter expression | 0.35% of 340,000 active | cell-based PrP 5' UTR mRNA reporter, plate reader | inhibition, % (no concentration beside the values);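 active = every replicate at 50% or more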;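 also: 0 = median of the neutral control wells; tested in H4 reporter cells; numbers are from one replicate; inactives centre near -14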
Sa RN4220 lethal = kills Staphylococcus aureus RN4220 | S. aureus RN4220 growth, OD600, 16 h | inhibition, % (no concentration beside the values) | 0.33% of 330,000 active;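 active = z-score of -3 or lower and OD600 up to 0.18 on both plates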;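 also: plate controls were untreated cells for no effect and reference antibiotic for full effect; stock transfer was 100 nL into about 80 µL; one replicate is shown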
Sa ugtP lethal = kills S. aureus RN4220 lacking UgtP. S. aureus RN4220 ugtP deletion, OD600 growth, 16 h; some inactives read as strong as hits. growth inhibition, % (test concentration not listed). 0.54% of 330,000 active;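 active = z-score under -3 and OD600 up to 0.15 on both plates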;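 also: plate controls were untreated wells for no effect and antibiotic for full effect; wells of about 80 µL received 100 nL stock; the first replicate is given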
Mtb hypoxia rep growth = also measured in Mtb hypoxia rep; calls as there; growth inhibition, %; measured here: M. tuberculosis growth (absorbance);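 0% = vehicle and 100% = reference antibiotic; read after six days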
* hit, by the source's call.

Results for O=C(CCn1c(=O)oc2ccccc21)NCCN1CCOCC1 ?
Mtb hypoxia rep: 4; Autofluor counter: 5038; BJeLR lethal: -1; PrP 5UTR inh: -8; Sa RN4220 lethal: -14; Sa ugtP lethal: -2; Mtb hypoxia rep growth: 11

What do the screens show for `COc1cc(/C=C/C(=O)OCC(=O)N2CCCC2)cc(OC)c1OC`?
Mtb hypoxia rep: 7; Autofluor counter: 5526; Sa RN4220 lethal: 2.2; Sa ugtP lethal: 3; Mtb hypoxia rep growth: 9

What do the screens show for `O=C1c2ccc(Oc3ccc([N+](=O)[O-])cc3)cc2C(=O)N1CCO`?
Mtb hypoxia rep: 16; Autofluor counter: 3113; BJeLR lethal: -10; PrP 5UTR inh: -13; Sa RN4220 lethal: 5.3; Sa ugtP lethal: 7; Mtb hypoxia rep growth: 6

Results for COc1ccc(S(=O)(=O)Nc2cc(C)ccn2)cc1 ?
Mtb hypoxia rep: -9; Autofluor counter: 4370; BJeLR lethal: -6; PrP 5UTR inh: -20; Sa RN4220 lethal: 0.7; Sa ugtP lethal: -2; Mtb hypoxia rep growth: 4

Results for Cc1cccc(N2CCN(C(=O)Cn3c(=O)[nH]c4ccsc4c3=O)CC2C)c1 (stereo unspecified) ?
Mtb hypoxia rep: 3; Autofluor counter: 7848; BJeLR lethal: -3; PrP 5UTR inh: -9; Sa RN4220 lethal: 5.7; Sa ugtP lethal: 7; Mtb hypoxia rep growth: 4

What do the screens show for `O=C(Nc1ccccc1OC(F)F)c1ccc(S(=O)(=O)N2CCCC2)cc1`?
Mtb hypoxia rep: 5; Autofluor counter: 3733; PrP 5UTR inh: 9; Sa RN4220 lethal: 5.5; Sa ugtP lethal: 3; Mtb hypoxia rep growth: 12

How did Nc1nc(Nc2cccc(F)c2)nc(N2CCOCC2)c1[N+](=O)[O-] do in these assays?
Mtb hypoxia rep: -1; Autofluor counter: 6120; BJeLR lethal: 3; PrP 5UTR inh: -6; Sa RN4220 lethal: 5.2; Sa ugtP lethal: -17; Mtb hypoxia rep growth: 1

Results for O=C(c1cccc(S(=O)(=O)Nc2ccccc2Cl)c1)N1CCC1 ?
Mtb hypoxia rep: 1; BJeLR lethal: 11; PrP 5UTR inh: -19; Sa RN4220 lethal: 5.3; Sa ugtP lethal: -2; Mtb hypoxia rep growth: -10

What do the screens show for `O=C(CS(=O)CC(=O)Nc1ccc(Cl)cc1)NCC1OCCc2ccccc21` (stereo unspecified)?
Mtb hypoxia rep: 4; Autofluor counter: 3959; BJeLR lethal: 2; PrP 5UTR inh: -13; Sa RN4220 lethal: 2.3; Sa ugtP lethal: 0; Mtb hypoxia rep growth: 11

How did COc1ccc(CC(=O)NN=C(C)CC(=O)Nc2ccc3c(c2)OCCO3)cc1 do in these assays?
Mtb hypoxia rep: 2; Sa RN4220 lethal: 2.2; Sa ugtP lethal: 11; Mtb hypoxia rep growth: 8

Results for Cn1c(SCC(=O)N2CCOCC2)nnc1-c1ccco1 ?
Mtb hypoxia rep: 4; Autofluor counter: 6030; BJeLR lethal: -5; PrP 5UTR inh: 1; Sa RN4220 lethal: 1.3; Sa ugtP lethal: 5; Mtb hypoxia rep growth: 2

What do the screens show for `CNCC(C)COc1ccccc1OCc1ccccc1` (stereo unspecified)?
Mtb hypoxia rep: 2; Autofluor counter: 2072; BJeLR lethal: -3; PrP 5UTR inh: -36; Sa RN4220 lethal: 2.4; Sa ugtP lethal: 0; Mtb hypoxia rep growth: -1

2 compounds picked at random from those above:
Results for Cn1c(SCC(=O)N2CCOCC2)nnc1-c1ccco1 ?
Mtb hypoxia rep: 4; Autofluor counter: 6030; BJeLR lethal: -5; PrP 5UTR inh: 1; Sa RN4220 lethal: 1.3; Sa ugtP lethal: 5; Mtb hypoxia rep growth: 2

What do the screens show for `COc1cc(/C=C/C(=O)OCC(=O)N2CCCC2)cc(OC)c1OC`?
Mtb hypoxia rep: 7; Autofluor counter: 5526; Sa RN4220 lethal: 2.2; Sa ugtP lethal: 3; Mtb hypoxia rep growth: 9

(continued)
Results for Cc1[nH]c2ccc(OC(F)(F)F)cc2c1CCNCc1cccc([N+](=O)[O-])c1 ?
Mtb hypoxia rep: 13; Autofluor counter: 3991; BJeLR lethal: 2; PrP 5UTR inh: -20; Sa RN4220 lethal: -3.6; Sa ugtP lethal: -15; Mtb hypoxia rep growth: 6

Results for CCN=C1SC(CC(=O)NCC)C(=O)N1CC (stereo unspecified) ?
Autofluor counter: 2416; BJeLR lethal: 4; PrP 5UTR inh: -21; Sa RN4220 lethal: -1.7; Sa ugtP lethal: 0

How did Nc1ncnc2c1ncn2CCN1CCCCC1 do in these assays?
Autofluor counter: 4308; BJeLR lethal: -4; PrP 5UTR inh: -4; Sa RN4220 lethal: 0.0; Sa ugtP lethal: -1

How did c1ccc(Cc2cc[n+](Cc3ccccc3)cc2)cc1 do in these assays?
Mtb hypoxia rep: 3; Autofluor counter: 2078; BJeLR lethal: 1; PrP 5UTR inh: -5; Sa RN4220 lethal: 2.5; Sa ugtP lethal: 8; Mtb hypoxia rep growth: 5

How did CCOC(=O)CC(=O)CSc1nc(C)cc(-c2cccnc2)c1C#N do in these assays?
Mtb hypoxia rep: -4; Autofluor counter: 9424; BJeLR lethal: -2; PrP 5UTR inh: -3; Sa RN4220 lethal: -2.0; Sa ugtP lethal: -1; Mtb hypoxia rep growth: 6

What do the screens show for `CCOc1ccc(C2C3=C(CCCC3=O)N(CC(=O)O)C3=C2C(=O)CCC3)cc1`?
Mtb hypoxia rep: 3; BJeLR lethal: -3; PrP 5UTR inh: -2; Sa RN4220 lethal: 2.1; Sa ugtP lethal: 9; Mtb hypoxia rep growth: -2

What do the screens show for `CCc1[nH]c(C(=O)O)c(C)c1C(=O)OC`?
Mtb hypoxia rep: 4; Autofluor counter: 3657; BJeLR lethal: 0; PrP 5UTR inh: -1; Sa RN4220 lethal: 11; Sa ugtP lethal: 4; Mtb hypoxia rep growth: -3

How did O=C(Cc1cccs1)Nc1ccc(-c2nnc(-c3ccccc3)o2)cc1 do in these assays?
Mtb hypoxia rep: 6; BJeLR lethal: 4; PrP 5UTR inh: -34; Sa RN4220 lethal: 3.3; Sa ugtP lethal: -7; Mtb hypoxia rep growth: 5

How did CCOC(=O)CC(NC(=O)c1ccccc1)c1ccc(OC)cc1 (stereo unspecified) do in these assays?
Mtb hypoxia rep: -2; Autofluor counter: 4684; BJeLR lethal: 12; PrP 5UTR inh: -14; Sa RN4220 lethal: 6.2; Sa ugtP lethal: 4; Mtb hypoxia rep growth: -6

How did Cc1ccc(C)c(NNC(N)=S)c1 do in these assays?
Autofluor counter: 4459; BJeLR lethal: 2; PrP 5UTR inh: -2

Results for Cc1cccc(CC2S/C(=N/c3ccccn3)NC2=O)c1 (stereo unspecified) ?
Autofluor counter: 2896; BJeLR lethal: -1; PrP 5UTR inh: -4

What do the screens show for `CN(C)/C=N/NC(=O)C1Cc2c(ccc3ccccc23)O1` (stereo unspecified)?
Autofluor counter: 3850; BJeLR lethal: -2; PrP 5UTR inh: -19

What do the screens show for `COc1ccccc1C(=O)COC(=O)c1cccc(S(=O)(=O)N2CCCC2)c1`?
Mtb hypoxia rep: 7; Autofluor counter: 5727; BJeLR lethal: -1; PrP 5UTR inh: -18; Sa RN4220 lethal: 3.9; Sa ugtP lethal: 5; Mtb hypoxia rep growth: 7

What do the screens show for `Cc1cc(N2CCN(c3ccc(F)cc3)CC2)nc(-c2ccccc2)n1`?
Autofluor counter: 2886; BJeLR lethal: -5; PrP 5UTR inh: -35; Sa RN4220 lethal: -4.8; Sa ugtP lethal: -8

What do the screens show for `Cc1cccc(C)c1OCC(=O)Nc1ncn[nH]1`?
Mtb hypoxia rep: 1; Autofluor counter: 9386; BJeLR lethal: -7; PrP 5UTR inh: -16; Sa RN4220 lethal: 3.2; Sa ugtP lethal: 1; Mtb hypoxia rep growth: 9

What do the screens show for `CC(=O)/C(N=Nc1ccc(C(=O)O)cc1)=C(\C)O`?
Mtb hypoxia rep: 1; Autofluor counter: 4497; BJeLR lethal: 6; PrP 5UTR inh: 3; Sa RN4220 lethal: 4.1; Sa ugtP lethal: 5; Mtb hypoxia rep growth: -3

Results for COc1ccc(/C=N/NC(=O)c2c(Br)cnn2C)c2ccccc12 ?
Autofluor counter: 5102; BJeLR lethal: 0; PrP 5UTR inh: -19

How did CCC1Oc2ccccc2N(CC(=O)NCCCN2CCOCC2)C1=O (stereo unspecified) do in these assays?
Mtb hypoxia rep: 17; Autofluor counter: 4678; BJeLR lethal: 6; PrP 5UTR inh: -23; Sa RN4220 lethal: 1.8; Sa ugtP lethal: 7; Mtb hypoxia rep growth: 10

How did COc1ccc(NC(=O)CS(=O)(=O)c2cn(CC(=O)N3CCOCC3)c3ccccc23)cc1OC do in these assays?
Mtb hypoxia rep: 0; Autofluor counter: 5897; BJeLR lethal: 4; PrP 5UTR inh: -3; Sa RN4220 lethal: 1.4; Sa ugtP lethal: 1; Mtb hypoxia rep growth: -6

Results for CN(CC(=O)NC1CCCC1)S(=O)(=O)c1cnc[nH]1 ?
Mtb hypoxia rep: 5; Autofluor counter: 4337; BJeLR lethal: -2; PrP 5UTR inh: -18; Sa RN4220 lethal: 0.5; Sa ugtP lethal: -8; Mtb hypoxia rep growth: 9

How did CCCC(=O)Nc1cccn(Cc2ccccc2Br)c1=O do in these assays?
Mtb hypoxia rep: 6; Autofluor counter: 4096; BJeLR lethal: -2; PrP 5UTR inh: -1; Sa RN4220 lethal: 3.1; Sa ugtP lethal: 12; Mtb hypoxia rep growth: 6

What do the screens show for `COCCNC(=O)c1cc(-c2ccccc2C)n(CC2CC(c3cccc([N+](=O)[O-])c3)=NO2)n1` (stereo unspecified)?
Mtb hypoxia rep: 7; Autofluor counter: 2835; PrP 5UTR inh: -15; Sa RN4220 lethal: 4.2; Sa ugtP lethal: 4; Mtb hypoxia rep growth: 7

Results for O=C(CN1CCCCC1)Nc1cccc(Oc2ccccc2)c1 ?
Mtb hypoxia rep: 2; Autofluor counter: 23011*; BJeLR lethal: -6; PrP 5UTR inh: -26; Sa RN4220 lethal: 0.5; Sa ugtP lethal: 0; Mtb hypoxia rep growth: 9

What do the screens show for `COc1cc(/C=C(\NC(C)=O)C(=O)Nc2ccccc2C)ccc1OC(C)=O`?
Mtb hypoxia rep: 0; Autofluor counter: 10807; BJeLR lethal: -6; PrP 5UTR inh: -30; Sa RN4220 lethal: 0.4; Sa ugtP lethal: 2; Mtb hypoxia rep growth: 7

Results for O=C(O)c1ccc(NC(=NS(=O)(=O)c2ccc(Cl)cc2)c2ccccc2)cc1 ?
Mtb hypoxia rep: 11; Sa RN4220 lethal: -1.5; Sa ugtP lethal: 5; Mtb hypoxia rep growth: 2

What do the screens show for `CCc1c(O)nc2ccccn2c1=O`?
Mtb hypoxia rep: 4; Autofluor counter: 2043; BJeLR lethal: -6; PrP 5UTR inh: -12; Sa RN4220 lethal: 4.3; Sa ugtP lethal: 8; Mtb hypoxia rep growth: 7

How did C=CCc1ccc(OCC(O)COc2ccc(CC=C)cc2OC)c(OC)c1 do in these assays?
Autofluor counter: 4294; BJeLR lethal: 6; PrP 5UTR inh: -4; Sa RN4220 lethal: -0.4; Sa ugtP lethal: 12

What do the screens show for `Cc1c(CCOC(=O)c2cccc([N+](=O)[O-])c2)sc[n+]1CC(=O)c1ccccc1`?
Mtb hypoxia rep: -4; Autofluor counter: 4442; BJeLR lethal: 0; PrP 5UTR inh: -32; Sa RN4220 lethal: -2.5; Sa ugtP lethal: -5; Mtb hypoxia rep growth: -12

What do the screens show for `O=C(NC1=C(Nc2ccc(Cl)cc2)C(=O)c2ccccc2C1=O)c1ccccc1`?
Autofluor counter: 2563; BJeLR lethal: -5; PrP 5UTR inh: -11; Sa RN4220 lethal: 67; Sa ugtP lethal: 67

Results for CCOC(=O)c1ccc(NC(=O)CSc2ccc(-c3cccnc3)nn2)cc1 ?
Autofluor counter: 4008; BJeLR lethal: -2; PrP 5UTR inh: -28

What do the screens show for `Clc1cccc(CSc2nnc(-c3cccnc3)n2Cc2ccco2)c1`?
Mtb hypoxia rep: 2; Autofluor counter: 15660; BJeLR lethal: -5; PrP 5UTR inh: 3; Sa RN4220 lethal: 4.9; Sa ugtP lethal: 0; Mtb hypoxia rep growth: -6

Results for CCN(CC)C(=O)n1c(Cc2ccccc2)nc2ccccc21 ?
Mtb hypoxia rep: 10; BJeLR lethal: -6; PrP 5UTR inh: -3; Sa RN4220 lethal: 0.7; Sa ugtP lethal: -4; Mtb hypoxia rep growth: 8

Results for COc1ccc(C=NNC(=O)CNc2n[nH]c(=O)[nH]c2=O)cc1OC ?
Mtb hypoxia rep: 1; Sa RN4220 lethal: 1.2; Sa ugtP lethal: 10; Mtb hypoxia rep growth: 3

What do the screens show for `Cc1cccc(/C=N/n2c(COc3ccccc3)n[nH]c2=S)c1`?
Autofluor counter: 3622; BJeLR lethal: -1; PrP 5UTR inh: -25
